Vif TR-FRET: inhibitors of Vif binding to APOBEC3G peptide, primary screen, biochemical, TR-FRET, GST-Vif 1-94, biotin-A3G peptide, dose response retest (AID 1117319) | 0.57% of 260,000 active | TR-FRET GST-Vif / biotin-A3G peptide binding; higher % means a stronger effect; test concentration not given here; strong numbers were not always called active | inhibition, %; hits with a dose series show IC50 in µM;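 active = above the screen mean plus three standard deviations and confirmed in dose response; inconclusive = results disagree or hit not tested in dose response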;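 also: Vif residues 1-94 fused to GST binding biotinylated APOBEC3G peptide 110-148; 0% = full assay without inhibitor and 100% = GST in place of GST-Vif; retest series ran down from 100 µM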
HNF4A DNA FP: change in binding of human HNF4A to DNA, primary screen, biochemical, fluorescence polarization, FITC-DNA. Hepatocyte nuclear factor 4-alpha (Homo sapiens), P41235. 1 h. activity change, % at 10 µM. 0.3% of 360,000 active; in the data active = activity change above about 30%, passing the limit was not always enough;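 also: controls were the assay level and a saturating level of protein; the project sought stronger binding though the title names inhibitors; some compounds called inactive have numbers as strong as hits; positive values seem to mean higher polarization but the record does not say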
RanGTP-Imp inh: inhibitors of RanGTP-importin-beta interaction, primary screen, biochemical, FRET, CFP-Ran, YFP-importin-beta, homogeneous. Ran GTPase (GTP-bound) - importin-beta complex. cell-free CFP-Ran/YFP-importin-beta FRET ratio. inhibition, % (test concentration not listed). 1.1% of 300,000 active;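 active = most replicates above 15%; inconclusive = exactly half above 15%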;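 also: 0% = DMSO wells and 100% = Ran loaded with GDP instead of GTP; wells of about 40 µL received 100 nL stock; the first replicate is given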
LANA-H2A inh: blockers of LANA interaction with H2A/H2B – biochemical, FP readout, HTS, primary screen. cell-free LANA-H2A/H2B peptide, fluorescence polarization. 0.6% of 320,000 active. inhibition, % (test concentration not listed); in the data active = inhibition mostly above about 10%, no sharp cut-off; inactive = mostly below about 6.7%;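 also: stock transfer was 7.5 nL into about 10 µL; 0% = median of vehicle wells and 100% = median of positive control wells; one replicate is shown; the record names a cut of 25% in any replicate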
Target sequence (Q9QR71 whole entry, looked up): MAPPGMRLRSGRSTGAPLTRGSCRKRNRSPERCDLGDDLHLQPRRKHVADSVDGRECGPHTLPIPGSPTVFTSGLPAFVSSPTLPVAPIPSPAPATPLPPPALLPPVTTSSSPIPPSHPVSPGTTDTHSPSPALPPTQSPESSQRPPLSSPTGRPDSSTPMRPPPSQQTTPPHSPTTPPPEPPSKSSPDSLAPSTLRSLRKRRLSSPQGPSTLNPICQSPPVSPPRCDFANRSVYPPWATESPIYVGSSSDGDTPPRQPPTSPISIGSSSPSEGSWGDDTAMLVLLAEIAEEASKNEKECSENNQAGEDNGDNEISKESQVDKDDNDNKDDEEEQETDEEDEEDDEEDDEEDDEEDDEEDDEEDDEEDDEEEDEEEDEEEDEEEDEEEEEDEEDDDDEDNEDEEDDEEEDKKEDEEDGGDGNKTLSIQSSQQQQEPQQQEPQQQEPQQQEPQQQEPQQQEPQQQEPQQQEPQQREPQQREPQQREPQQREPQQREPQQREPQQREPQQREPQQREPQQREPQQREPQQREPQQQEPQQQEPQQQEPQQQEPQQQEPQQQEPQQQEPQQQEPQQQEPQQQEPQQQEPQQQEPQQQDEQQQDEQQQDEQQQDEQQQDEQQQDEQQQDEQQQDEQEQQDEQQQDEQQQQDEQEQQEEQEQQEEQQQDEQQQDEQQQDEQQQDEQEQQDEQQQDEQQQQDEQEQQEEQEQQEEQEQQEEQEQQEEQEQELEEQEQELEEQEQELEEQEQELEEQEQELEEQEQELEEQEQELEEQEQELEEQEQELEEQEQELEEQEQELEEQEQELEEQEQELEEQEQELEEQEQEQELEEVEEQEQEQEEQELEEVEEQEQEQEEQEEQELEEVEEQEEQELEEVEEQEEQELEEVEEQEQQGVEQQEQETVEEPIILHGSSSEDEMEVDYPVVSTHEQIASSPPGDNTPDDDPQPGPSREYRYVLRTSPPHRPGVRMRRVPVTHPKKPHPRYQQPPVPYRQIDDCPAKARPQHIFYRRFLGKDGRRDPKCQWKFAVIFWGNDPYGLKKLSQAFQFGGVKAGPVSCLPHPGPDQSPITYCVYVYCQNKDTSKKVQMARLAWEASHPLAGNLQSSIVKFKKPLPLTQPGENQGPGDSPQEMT
ALR inh: inhibitors of human ALR sulfhydryl oxidase, primary screen, biochemical, H2O2 detection, HRP-luminol luminescence, single point; inhibition, % (no concentration beside the values); 3.8% of 290,000 active; AID 485317, 2010; purified ALR, DTT oxidation; FAD-linked sulfhydryl oxidase ALR (Homo sapiens), P55789;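 active = mean and each replicate at 75% or more; inconclusive = only one of the two met; inactive = neither met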;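 also: stock transfer was 7.5 nL into about 7.5 µL; 0% = neutral wells and 100% = wells with inactivated enzyme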
Beta2AR agonist: beta2AR agonists driving receptor internalization, primary screen, cell-based, FAP fluorogen, flow cytometry; AID 504454, 2011; Beta-2 adrenergic receptor (Homo sapiens), P07550; Am2.2-beta2AR cells; reference of the scale not given here; response, % (no concentration beside the values); 0.43% of 340,000 active;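 active = response above a set limit, near 3 SD of response in nonfluorescent compounds, cut at about 42% in these data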;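 also: stock transfer was 100 nL into about 11 µL; a reference agonist was the positive control; negative values mostly stem from fluorescent compounds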
Calb FLC: C. albicans growth inhibition with fluconazole, primary screen, CaCi-2 strain, Alamar Blue fluorescence; growth inhibition, % (concentration not given with the values); C. albicans CaCi-2 (fluconazole-resistant clinical isolate) + fluconazole, 48 h; 0.57% of 300,000 active;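 active = most replicates above 75%; inconclusive = exactly half above 75%; inactive = most below 75%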;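 also: all wells also contain fluconazole at 8 µg/ml as a sub-toxic cotreatment; 0% = median of DMSO wells and 100% = median of geldanamycin control wells; wells of about 8 µL received 7.5 nL stock; the first replicate is given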
* hit, by the source's call; ? = inconclusive; . = not tested or not shown.

Start of the data: the first 3 entries, ahead of the listing:
smiles	Vif TR-FRET	HNF4A DNA FP	RanGTP-Imp inh	LANA-H2A inh	ALR inh	Beta2AR agonist	Calb FLC
CCCCn1c(O)c(N=NC(=O)c2ccco2)c2ccccc21	-9%	-3.7	2.2	-0.1	15	8	-2
O=C(Nc1c2n(c(=S)n(-c3ccccc3)c1=O)CCCCC2)c1ccccc1	-9%	-1.9	2.1	-5.2	-3	3	4
COC(=O)[C@H](CCSC)NC(=O)N1CCN(Cc2ccccc2)CC1	-1%	1.4	-4.2	2.9	-8	8	-6

Results, from the start:
smiles	Vif TR-FRET	HNF4A DNA FP	RanGTP-Imp inh	LANA-H2A inh	ALR inh	Beta2AR agonist	Calb FLC
CCCCn1c(O)c(N=NC(=O)c2ccco2)c2ccccc21	-9%	-3.7	2.2	-0.1	15	8	-2
O=C(Nc1c2n(c(=S)n(-c3ccccc3)c1=O)CCCCC2)c1ccccc1	-9%	-1.9	2.1	-5.2	-3	3	4
COC(=O)[C@H](CCSC)NC(=O)N1CCN(Cc2ccccc2)CC1	-1%	1.4	-4.2	2.9	-8	8	-6
COc1ccc(Cn2c(N)c(S(=O)(=O)c3cccs3)c3nc4ccccc4nc32)cc1	-5%	-0.8	.	1.5	-10	-6	-3
COc1cccc(CN(C)C(=O)c2cccc(S(=O)(=O)Nc3cccc(C)c3)c2)c1OC	-1%	2.9	.	.	.	10	.
Cc1cc(C)c(NC(=O)C2c3ccccc3Oc3ccccc32)c(C)c1	.	3.8	-5.7	-2.3	-7	1	-7
Cc1ccccc1N/N=C/c1c(C)nc2ccccn12	6%	2.0	1.9	7.2	3	8	-19
CS(=O)(=O)N(CC(=O)N1CCN(c2ccccc2)CC1)c1ccccc1Cl	.	2.7	1.0	0.7	62	3	41
CC(=O)Nc1cccc(Oc2cnc3ccccc3n2)c1	1%	-5.1	4.4	6.8	23	-7	-14
Cc1ccc(N2C(=O)CC(N(O)C3CC(=O)N(c4ccc(C)cc4)C3=O)C2=O)cc1 (centres undefined)	6%	-1.1	1.3	-0.2	20	0	1
CCOc1ccc(N2C(=O)CC(Sc3nc(CC(C)C)ccc3C#N)C2=O)cc1 (centres undefined)	.	3.5	2.3	2.1	35	-7	49
COc1ccccc1NC(=O)c1cc2cc(Br)ccc2oc1=N	1%	-1.6	0.9	1.0	-2	2	4
Cc1ccnc(NC(=O)CCC(=O)N(CC(=O)NC2CCCCC2)CC2CCCO2)c1 (centres undefined)	4%	2.9	2.7	-5.6	1	-8	-3
CSc1cccc(NS(=O)(=O)c2ccc(F)cc2)c1	7%	-0.5	-5.0	4.5	.	2	-6
O=C(/C=C/c1cccc([N+](=O)[O-])c1)NCCSCc1c(Cl)cccc1Cl	-1%	1.2	0.2	1.6	-1	-6	-1
CCOC(=O)C1=C(COC(=O)c2ccccc2OC)NC(=O)NC1C (centres undefined)	9%	4.5	.	.	.	-3	.
CC1CCCCC1NC(=O)c1cncc(Br)c1 (centres undefined)	2%	1.3	0.0	1.9	-3	-9	-1
COCC1CCN(C(=O)CC2C(=O)NCCN2Cc2cccc(Oc3ccccc3)c2)CC1 (centres undefined)	.	3.4	5.8	-0.1	-6	-17	-2
Cc1ccc(NC(=O)CNC(=O)c2cccs2)c(O)c1	4%	3.0	1.8	0.6	37	14	-4
CC(C)C1C(C#N)=C(N)Oc2n[nH]c(-c3ccc4ccccc4c3)c21 (centres undefined)	-5%	1.8	4.7	-0.3	2	2	6
CCCCOc1ccccc1C(=O)NCC(=O)O	20%	-1.5	8.9	2.4	-8	5	-2
COc1cccc(C(C(=O)NC2CCCC2)N(C(=O)c2ccco2)c2cccc(C(C)=O)c2)c1OC (centres undefined)	7%	1.0	2.4	-3.4	.	-1	9
Cc1ccc(NC(=O)NC2=N/C(=C(/C#N)C(=O)N3CCCC3)c3ccccc32)cc1	-4%	0.2	3.7	3.3	-1	4	13
COc1ccccc1NC(=O)CCc1nc2ccccc2s1	19%	4.1	-0.5	0.9	-36	-13	2
COC(=O)c1ccc(CN2CCN(C(C)C)C(CCO)C2)cc1 (centres undefined)	-1%	-1.0	?	0.7	-2	9	0
O=C(CN1CCCC1)Nc1sc2c(c1C(=O)Nc1ccccc1)CCCC2	.	-2.0	-3.0	-9.6	24	0	44
OC(CNC1CCCCC1)COCCOc1ccc(Br)cc1 (centres undefined)	.	-0.7	-2.5	-5.6	-4	29	3
Cc1cnc(NC(=O)CSc2nnc(-c3ccc(Cl)cc3Cl)n2N)s1	-4%	1.9	.	0.5	-57	2	.
O=C1CN(S(=O)(=O)c2ccccc2)CCN1S(=O)(=O)c1ccccc1	11%	-3.5	1.4	2.0	-15	2	-9
Cc1cccc(C(=O)OCC(=O)N2CC(C)CC(C)C2)c1C (centres undefined)	1%	4.2	.	4.1	-6	-3	.
Cc1cc(NS(=O)(=O)c2ccc(Nc3nc(-c4sc(NC(=O)c5ccccc5)nc4C)cs3)cc2)no1	22%	.	.	-1.3	55	.	16
COc1ccc(CCNC(=O)C/C(C)=N/NC(=O)c2ccc(Cl)cc2Cl)cc1OC	.	3.1	-0.2	4.3	5	-5	.
CCOC(=O)c1c(C)[nH]c(C(=O)OCC(=O)NC2CCS(=O)(=O)C2)c1C (centres undefined)	?	-0.4	7.1	2.0	-7	-6	-6
CCn1cc(C2=NOC(C(=O)Nc3c(C)nn(Cc4ccc(F)cc4)c3C)C2)c(C)n1 (centres undefined)	7%	-3.2	?	.	.	-6	9
COc1cc(NC(=O)NCC2CCN(Cc3ccccc3C)CC2)cc(OC)c1OC	.	4.1	-2.8	5.3	-2	-3	0
CCOC(=O)C1CCN(C(=O)CCC2CCCC2)CC1	.	-0.7	4.3	-1.0	-13	3	-13
CCOC(=O)c1c(C)[nH]c(C(=O)COC(=O)CSCC(=O)N(CC)CC)c1C	69%	-0.5	0.5	-16	?	4	1
O=C(N/N=C/c1cc([N+](=O)[O-])ccc1O)Nc1ccccc1	8%	-5.5	-3.2	2.5	33	5	18
CCOC(=O)c1c(CN2CCCCC2C)oc2ccc(OC)cc12 (centres undefined)	-5%	1.0	-3.3	3.7	0	-13	3
Cc1ccc(S(=O)(=O)NC(C(=O)Oc2ccc3c(C)c(Cl)c(=O)oc3c2)c2ccccc2)cc1 (centres undefined)	-10%	2.1	72*	8.0	-1	6	4
Cc1ccc2cc3c(N)c(C(=O)N4CCOCC4)sc3nc2c1	-2%	-0.5	4.9	1.3	58	-1	7
CN(C)CCCNC(=S)N1CCC(c2nc3ccccc3[nH]2)CC1	.	1.0	2.7	1.5	.	-9	-7
COCCCNC(=O)CCn1c(=O)c2ccccc2n(CC(=O)NCCc2ccc(OC)c(OC)c2)c1=O	4%	0.9	-5.5	2.5	-9	-2	3
CCN1CCN(CCOc2cccc(Cl)c2Cl)CC1	?	1.0	-1.9	2.7	-4	10	8
Cc1c(NC(=O)C(C)OC(=O)CCc2ccccc2)c(=O)n(-c2ccccc2)n1C (centres undefined)	-9%	0.2	2.5	-0.7	1	-8	-11
Cc1ccc(C)n1-c1ccc(N2CCOCC2)cc1	?	3.5	.	2.2	73	1	-18
Cc1ccc(NC(=O)C2C3C=CC4(O3)C2C(=O)N(CCN2CCOCC2)C4C(=O)NC2CCCCC2)cc1C (centres undefined)	.	3.7	2.1	-2.5	1	4	-5
Cc1cccc(C)c1NC(=S)N(CCN(C)C)C(C)c1ccccn1 (centres undefined)	7%	0.4	-0.2	-1.4	-6	3	0
CC(=O)N1CCOc2ccc(S(=O)(=O)Nc3cccc(C)c3)cc21	.	0.7	1.6	-2.0	-5	-1	-4
COC(=O)c1sc(SC)c2c1CC(C)(C)C/C2=N/O	11%	-3.9	2.1	2.0	.	8	-5
CC(C)c1nnc(NC(=O)CCc2ccccc2)s1	-12%	-0.7	?	-0.8	-9	-10	-2
COc1ccccc1N1CCN(CC(O)COc2ccc(C)c(C)c2)CC1 (centres undefined)	-10%	7.1	0.4	-1.7	33	-9	-27
CCOC(=O)C1(Cc2ccccc2C)CCCN(C(=O)CCn2nccc2C)C1 (centres undefined)	0%	2.4	-2.0	0.1	0	-1	4
NCC(=O)NCC(=O)NC[C@H]1O[C@@H](n2cnc3c(N)ncnc32)[C@H](O)[C@@H]1O	-6%	-0.3	.	.	.	-2	.
COc1cc(/C=N/NS(=O)(=O)c2ccc3ccccc3c2)ccc1OCc1ccc(C(=O)O)cc1	2%	0.7	2.4	1.7	.	-3	-4
C=CCN1C(=O)c2ccc(C(=O)N3CCN(S(=O)(=O)c4cccc(F)c4)CC3)cc2C1=O	1%	-0.1	?	2.6	-5	-2	6
COc1ccccc1NC1=NC(c2ccc(Cl)cc2)N=C(N)N1 (centres undefined)	-1%	-2.9	-2.8	-3.2	-5	10	12
Cc1ccc(S(=O)(=O)n2cnc3ccccc32)cc1[N+](=O)[O-]	.	3.1	0.5	3.7	-22	-7	1
Cc1cccc(NC(=O)c2c(F)c(F)c(F)c(F)c2F)c1	17%	1.3	4.2	1.1	-14	15	-29
CC(=O)Nc1ccc(NC(=O)CNC(=O)c2sc3ccccc3c2Cl)cc1	1%	-0.7	-2.0	.	.	-10	-2

(more compounds)
smiles	Vif TR-FRET	HNF4A DNA FP	RanGTP-Imp inh	LANA-H2A inh	ALR inh	Beta2AR agonist	Calb FLC
CCN1CCN(CCCNC(=O)c2ccc(NC(=O)C3=C(C)OCCS3)cc2)CC1	.	-0.9	-5.4	-4.8	-4	5	4
COc1cccc(-n2c(=O)c3sccc3n(CC(=O)NCC3CCCO3)c2=O)c1 (centres undefined)	1%	-1.1	-1.8	-6.4	-1	-3	2
COc1cccc(NC(=S)N2CCN(S(=O)(=O)c3ccccc3)CC2)c1	3%	5.7	.	-1.0	-16	11	-2
Nc1nonc1C(=O)NCCNCc1ccccc1OCc1ccccc1F	-2%	1.1	3.5	-0.5	-2	-7	-18
C/C(Cl)=C/Cn1c(N2CCCC2)nc2c1c(=O)n(C)c(=O)n2C	0%	-4.3	.	1.6	53	0	.
O=C(Cn1nc(-c2cccc([N+](=O)[O-])c2)c2ccccc2c1=O)Nc1cccnc1	2%	-4.6	1.2	1.9	54	-7	?
COC(=O)c1cc(CC(=O)c2ccc(O)cc2O)c(C)o1	20%	0.7	5.8	-0.3	-11	6	-8
O=C(CSc1nnnn1-c1ccccc1)NC1CCCc2ccccc21 (centres undefined)	.	-1.0	-2.3	-15	-4	-4	43
O=C1NC(=O)N(Cc2ccccc2)C1=O	.	5.2	3.5	-6.8	-2	-5	1
COc1cc(OC)c(NS(=O)(=O)c2ccc(Cl)c(C(=O)OC(C)C(=O)N3CCCC3)c2)cc1Cl (centres undefined)	.	0.8	-1.1	-0.4	-25	4	8
CC(CCc1ccccc1)NC(=O)CNC(=O)c1ccccc1Br (centres undefined)	.	1.1	1.1	2.9	-1	-1	-5
CCOc1ccccc1NC(=O)CSc1nc2cccnc2n1C	6%	-0.7	1.9	-2.3	-10	5	2
CCOC(=O)N1CCN(S(=O)(=O)c2ccc3c(c2)NC(=O)CO3)CC1	16%	2.8	.	.	.	-6	.
Cc1nnc(NC(=O)CSC2CCCCC2)s1	1%	-23	1.7	-2.8	-25	-1	-10

Screening data as filed in PubChem.

The order is random. About 6.3% of those tested had a hit in this group.
